BJeLR viability – kills HRASV12-expressing BJeLR cells; AID 1554; inhibition, % (test concentration not listed); BJeLR (HRASV12) viability, CellTiter-Glo ATP luminescence, 48 h; reference of the scale not given here; 300,000 compounds, 0.17% hits;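 active = replicate mean above 50%; inconclusive = above 50% but judged a plate artefact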;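 note: 50 nL library stock added to about 25 µL; numbers are from one replicate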
Mtb hypoxia rep – Mtb hypoxia fluorescent reporter inhibition; 300,000 compounds, 0.1% hits; fluorescence inhibition, % (no concentration beside the values); M. tuberculosis hypoxia-regulated fluorescent reporter, fluorescence;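 active = 35 to 45% if threefold the growth effect, above 45% if 1.5-fold the growth effect; inactive = the rest, general growth blockers included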;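 note: wells of about 50 µL received 100 nL stock; 0% = vehicle wells and 100% = reference inhibitor wells; whole bacteria with a GFP reporter of the hypoxia response; strong numbers were not always called active; many hits fall short of the cut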
ugtP null kill – kills S. aureus RN4220 lacking UgtP. S. aureus RN4220 ugtP deletion, OD600 growth, 16 h; some inactives read as strong as hits. growth inhibition, % (concentration not given with the values). 330,000 compounds, 0.54% hits. AID 1259309;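 active = z-score under -3 and OD600 up to 0.15 on both plates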;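 note: plate controls were untreated wells for no effect and antibiotic for full effect; wells of about 80 µL received 100 nL stock; the first replicate is given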
Sa RN4220 lethal – S. aureus RN4220 growth inhibition; OD600, 16 h; inhibition, % (no concentration beside the values); 330,000 compounds, 0.33% hits; AID 1259311;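 active = z-score of -3 or lower and OD600 up to 0.18 on both plates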;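 note: plate controls were untreated cells for no effect and reference antibiotic for full effect; stock transfer was 100 nL into about 80 µL; one replicate is shown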
Autofluor counter – compound fluorescence in toxin protease inhibitor counterscreen | compound autofluorescence counterscreen, microsphere flow cytometry; stronger effect = higher value | fluorescence intensity (no concentration beside the values) | 360,000 compounds, 3.1% hits | AID 624483;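 active = at least 3 SD above the mean of all compounds, about 16000 in these data; inconclusive = too few beads counted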;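 note: 100 nL of 1 mM stock went into each well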
PrP UTR inh – inhibition of PrP 5' UTR reporter expression. cell-based PrP 5' UTR mRNA reporter, plate reader. inhibition, % (test concentration not listed). 340,000 compounds, 0.35% hits. AID 488862;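 active = every replicate at 50% or more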;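 note: 0 = median of the neutral control wells; tested in H4 reporter cells; numbers are from one replicate; inactives centre near -14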
Mtb hypoxia rep growth – recorded beside Mtb hypoxia rep, whose call it bears; growth inhibition, %; measured here: M. tuberculosis growth (absorbance);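 0% = vehicle and 100% = reference antibiotic; read after six days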
* = called active by the depositor; ? = inconclusive; . = no result given; & = joins results of further samples. No enrichment for hits; any-hit rate near 4%.

SMILES | BJeLR viability | Mtb hypoxia rep | Mtb hypoxia rep growth | ugtP null kill | Sa RN4220 lethal | Autofluor counter | PrP UTR inh
COc1cccc(Nc2nnc(SCc3nc4ccccc4s3)s2)c1 | 1 | -1 | -1 | 6 | 9.8 | 10608 | -34
O=C1C(=O)N(CCCO)C(c2ccccc2)/C1=C(\O)c1ccc(Br)cc1 (configuration not stated) | -17 | -1 | 1 | 3 | 4.4 | 3250 | -12
CCOc1ccc2c(c1)C(c1cccs1)=NNC(c1cccnc1)=N2 | 4 | 1 | 0 | 39 | -11 | 2507 | -97
C(=N\NC1=NCCN1)/c1ccncc1 | 1 | . | . | . | . | 3223 | -5
CCCC(=O)Nc1ccccc1-c1nnn(CC(=O)Nc2ccc(OC)cc2)n1 | 11 | 11 | 11 | -8 | -2.4 | 2982 | -14
CCCC(=O)N1CCN(c2ccc(NC(=O)C(C)(C)C)cc2Cl)CC1 | 2 | 9 | 8 | 2 | 2.2 | 4424 | -5
Cc1c(C(=O)O)c(-c2ccccc2)nn1-c1ccccc1 | 9 | . | . | -1 | -0.5 | 3516 | -13
COc1cc(CN2CCCC(CO)(Cc3cccc(Cl)c3)C2)cc(OC)c1O (configuration not stated) | -5 | -8 | 5 | 0 | -0.2 | 4597 | 17
O=C(OCC(=O)N1CCc2ccccc21)c1ccccc1F | -9 | 1 | 5 | 8 | 0.7 | 5609 | -15
COc1cc(/C=C2/SC(=S)N(c3c(C)n(C)n(-c4ccccc4)c3=O)C2=O)ccc1O | -3 | -5 | 1 | -7 | -4.3 | 2637 | -18
CC(=NNC(=O)c1nn(C)c(C)c1Br)c1ccc(NC(=O)c2ccccc2F)cc1 | . | 3 | 3 | 8 | -4.6 | . | .
O=C(CNC(=O)c1[nH]cnc1C(=O)N[C@@H](Cc1ccccc1)C(=O)OCc1ccccc1)OCc1ccccc1 | 7 | . | . | . | . | 4002 | -15
O=C(Nc1c[nH]c2c(Cl)cccc2c1=O)N1CCN(c2ccccn2)CC1 | 8 | -3 | 4 | 4 | 1.0 | 4227 | -28
O=C(N/N=C\c1ccc([N+](=O)[O-])s1)C1COc2ccccc2O1 (configuration not stated) | 9 | . | . | . | . | 5921 | -10
CN1CCN(C(=O)c2cc3nc(-c4ccc(Cl)cc4)cc(C(F)(F)F)n3n2)CC1 | 3 | . | . | 3 | 5.4 | 4903 | -14
O=[N+]([O-])c1cnc(Nc2ccccc2)nc1Nc1ccccc1 | -1 | 1 | 0 | -9 | -6.0 | 3186 | 30
CC1CCN(C(=O)c2ccc(S(=O)(=O)Cc3cccc(F)c3)c([N+](=O)[O-])c2)CC1 | -1 | 6 | 6 | 10 | 3.1 | 2137 | -9
CC(NC(=O)c1ccc(S(=O)(=O)N(C)C)cc1)c1ccc(-n2ccnc2)cc1 (configuration not stated) | 1 | -1 | 0 | 11 | -3.3 | 4198 | -27
COc1cccc(NC(=O)CSc2nncn2N)c1 | 6 | . | . | 8 | 0.5 | 4988 | -16
COc1ccc([N+](=O)[O-])cc1NC(=O)CCN1CCN(c2ccccc2OC)CC1 | -14 | 10 | 2 | 6 | 4.3 | 2362 | -10
CC1(C(=O)NCc2ccc(F)cc2)Oc2ccccc2NC1=O (configuration not stated) | 4 | -2 | -2 | -8 | 5.0 | 3184 | -5
Cc1ccc(-n2ncc3c2CC(C)(C)CC3NC(=O)Cc2c(C)noc2C)cc1 (configuration not stated) | 8 | -2 | -10 | 1 | -2.7 | 4085 | -4
Cc1cc(NC(=O)CSc2nnc(-c3ccncc3)n2N)ccc1Br | 7 | . | . | 8 | 0.2 | 2821 | -25
Cn1cc(C=O)c(-c2ccc3c(c2)OCCCO3)n1 | -6 | 2 | 1 | 14 | 2.3 | 3497 | -20
CC(C)OC(=O)CC1C(=O)NCCN1C(=S)NC(=O)c1ccccc1Cl (configuration not stated) | 3 | 7 | -2 | -5 | 4.2 | 1935 | -2
CCn1c(SC)nnc1-c1nn(-c2ccccc2)ccc1=O | -17 | 5 | 10 | -9 | -1.6 | 2994 | -4
O=C(Nc1ccc(N2CCN(C(=O)c3ccc(Cl)cc3)CC2)cc1)c1ccc(Br)o1 | -7 | 6 | 11 | -7 | 8.5 | 2443 | 1
Cc1cc(NC(=O)CSc2nnc(Cc3ccccc3)n2C)no1 | -5 | -1 | -1 | 3 | 2.7 | 3862 | -8
COc1cc(NC(=S)NCCCN2CCOCC2)c(OC)cc1NC(=O)c1ccco1 | -1 | -1 | -3 | 6 | 3.5 | 5736 | -15
O=C(NC(NC(=S)Nc1cccc(C(=O)O)c1)C(Cl)(Cl)Cl)OCc1ccccc1 (configuration not stated) | 19 | 4 | 1 | 9 | 3.0 | 7470 | -7
CCc1ccc(C(=O)NNC(=O)c2cccc(S(=O)(=O)N3CCN(C)CC3)c2)cc1 | . | 3 | -5 | 4 | 3.6 | ? | -18
COc1cc(C=NNC(=O)c2ccc3ccccc3c2)ccc1Oc1ccc([N+](=O)[O-])cn1 | . | 0 | -18 | 2 | -3.7 | . | .
O=C(NCCOc1ccccc1F)C1CC(=O)N(c2ccc3c(c2)OCCO3)C1 (configuration not stated) | . | 7 | 10 | 2 | 2.7 | 3477 | -14
N=c1c[n+](N2CCOCC2)[n-]o1 | 0&4 | . | . | . | . | 5879 | 4
CC(C)Oc1ccc(/C=C(\NC(=O)/C=C/c2ccco2)C(=O)NCCc2nc3ccccc3[nH]2)cc1 | -3 | -2 | 6 | -2 | 0.8 | 2859 | 2
O=C(COC(=O)c1ccco1)Nc1ccc2c(c1)OCCO2 | -12 | 4 | 6 | 17 | 24 | 2632 | -24
CN(C(=O)Nc1ccc(Cl)cc1Cl)C1CCCC1 | 3 | 2 | 0 | 4 | 1.4 | 2474 | -47
COc1ccc(-n2nc(C(=O)Nc3ccc4c(c3)OCO4)c3c4ccccc4n(C)c3c2=O)cc1 | -12 | . | . | -6 | 2.2 | 3093 | 14
Nc1nc(SCC(=O)Nc2ccc([N+](=O)[O-])cc2)[nH]c(=O)c1NC(=O)c1ccc(Br)cc1 | 4 | 7 | 1 | -2 | -2.5 | 4643 | -3
CCOCCCNC(=O)C(c1ccccc1)N(Cc1ccc2c(c1)OCO2)C(=O)c1ccccc1O (configuration not stated) | -2 | 4 | 2 | 5 | 6.3 | 3393 | -20
CC(OC(=O)CCN=C1NS(=O)(=O)c2ccccc21)C(=O)Nc1ccccc1F (configuration not stated) | -1 | 8 | 8 | 1 | 0.9 | ? | -4
Cc1ccc(C(=O)OCC(=O)Nc2ccc3[nH]c(=O)[nH]c3c2)o1 | 10 | 4 | 12 | 2 | 0.6 | ? | 0
COC(=O)c1ccc(N2CCN(C)CC2)c(NC(=O)c2cccnc2)c1 | 0 | 3 | 10 | 5 | 8.6 | 3889 | -2
CN1C=CC=C/C1=C(\C#N)c1nc2ccccc2[nH]1 | -12 | 5 | 6 | 9 | 4.6 | 10608 | -14
COCCN(C(=O)Cn1nnc2ccccc21)C(C(=O)NC1CCCC1)c1cccc(OC)c1OC (configuration not stated) | 3 | 6 | 16 | -3 | -1.3 | 3168 | -7
C[C@H]1CN([C@@H](C)CO)C(=O)c2cccc(NC(=O)Nc3ccc(F)cc3)c2O[C@@H]1CN(C)Cc1ccc(C(=O)O)cc1 | . | 8 | 6 | 0 | -15 | 3606 | -4
CCOc1ccccc1N1CC(C(=O)Nc2ccccc2CC)CC1=O (configuration not stated) | -2 | 6 | 1 | 11 | 6.6 | 4427 | -3
O=C(N/N=C/c1cccc(Br)c1)c1ccc(Cn2cc(Br)cn2)o1 | -3 | . | . | . | . | 2500 | -35
Cc1ccc(S(=O)(=O)Nc2ncccn2)cc1 | 3 | 6 | -10 | 16 | 2.3 | 3283 | -15
O=C1c2ccccc2NC(c2ccc(F)cc2)N1Cc1ccco1 (configuration not stated) | 3 | . | . | 10 | -2.4 | 2500 | -21

No new results follow: 5 of the compounds above.
SMILES | BJeLR viability | Mtb hypoxia rep | Mtb hypoxia rep growth | ugtP null kill | Sa RN4220 lethal | Autofluor counter | PrP UTR inh
Cc1ccc(C(=O)OCC(=O)Nc2ccc3[nH]c(=O)[nH]c3c2)o1 | 10 | 4 | 12 | 2 | 0.6 | ? | 0
COC(=O)c1ccc(N2CCN(C)CC2)c(NC(=O)c2cccnc2)c1 | 0 | 3 | 10 | 5 | 8.6 | 3889 | -2
CN1C=CC=C/C1=C(\C#N)c1nc2ccccc2[nH]1 | -12 | 5 | 6 | 9 | 4.6 | 10608 | -14
COCCN(C(=O)Cn1nnc2ccccc21)C(C(=O)NC1CCCC1)c1cccc(OC)c1OC (configuration not stated) | 3 | 6 | 16 | -3 | -1.3 | 3168 | -7
C[C@H]1CN([C@@H](C)CO)C(=O)c2cccc(NC(=O)Nc3ccc(F)cc3)c2O[C@@H]1CN(C)Cc1ccc(C(=O)O)cc1 | . | 8 | 6 | 0 | -15 | 3606 | -4

Remaining list, next part.
SMILES | BJeLR viability | Mtb hypoxia rep | Mtb hypoxia rep growth | ugtP null kill | Sa RN4220 lethal | Autofluor counter | PrP UTR inh
Cc1c(NC(=O)c2cc3c(=O)n4ccccc4nc3s2)c(=O)n(-c2ccccc2)n1C | -10 | -6 | 7 | 9 | 6.4 | 3233 | -17
COc1ccc(C2NC(=O)NC(c3ccccc3)=C2c2nc3ccccc3s2)cc1 (configuration not stated) | -15 | 12 | 4 | -4 | 6.5 | 10191 | .
C/C(NC(=O)c1ccccc1)=C1/C(=O)CC2C1C2(C)C (configuration not stated) | 1 | . | . | 7 | -1.9 | 4381 | -64
COc1ccccc1N1CCN(C(=O)c2oc3ccc(Br)cc3c2C)CC1 | 6 | 4 | -3 | -1 | 17 | 2159 | -9
C/C(=N\NC(=O)Cn1c(-c2ccccn2)nc2ccccc21)c1ccccc1 | -5 | . | . | . | . | 1993 | -8
COc1cc(C(=O)Nc2c(C(=O)O)[nH]c3ccccc23)cc(OC)c1OC | -7 | 0 | -3 | 13 | 3.0 | 3065 | 6
CCN(Cc1ccccc1)Cc1c(C)[nH]c2c(C)c(C)ccc2c1=O | -5 | -6 | 1 | -2 | -0.3 | 20905* | -11
FC(F)(F)c1nc2ccccc2nc1N/N=C\c1ccccc1 | 0 | . | . | . | . | 2696 | -11
CC12CCC(C(=O)Nc3ccc4c(c3)OCCO4)(OC1=O)C2(C)C (configuration not stated) | -8 | 1 | 3 | 1 | 0.2 | 23818* | 10
O=C(NCC1CCCO1)c1ccc2c(c1)N(Cc1ccccc1)C(=O)CS2 (configuration not stated) | -7 | 9 | 1 | 9 | 0.7 | 4516 | -19
COc1ccc(/C=C2\SC(=O)N(CCNC(=O)CN3C(=O)NC4(CCCC4)C3=O)C2=O)cc1 | -7 | 10 | -1 | 3 | 0.8 | 5707 | -24
CCOc1ccc(S(=O)(=O)NCCSc2ccccc2)cc1 | -8 | 2 | 7 | -1 | -0.9 | 5335 | -8
FC(F)(F)/C(=N\P(=S)(N1CCOCC1)N1CCOCC1)N1CCOCC1 | -11 | . | . | . | . | 17852* | -10
COc1ccc(C(=O)NN=C(C)c2ccc(NC(=O)Cc3ccccc3)cc2)c(OC)c1 | . | -11 | -9 | 4 | 2.5 | . | .
CC(C)NC(=O)c1ccc2c(c1)N(CC(=O)NC1CCCCC1)C(=O)C(C)(C)O2 | -9 | -12 | -2 | 7 | 0.2 | 5955 | 0
Cc1c(NC(=O)Nc2ccc(Cl)c(Cl)c2)c(=O)n(-c2ccccc2)n1C | . | 3 | 12 | 23 | 42 | 8866 | -6
CC12CN3CC(c4ccccc4)(CN(C1)C31CCCCC1)C2=O | -7 | . | . | 5 | 2.9 | 6803 | 2
C#CCOCCOCCOCCNc1nc(N2CCN(C(=O)C(C(C)O)n3cc(C(N)CCCCN)nn3)CC2)nc(N2CCN(C(=O)C(C(C)O)n3cc(C(N)CCCCN)nn3)CC2)n1 (configuration not stated) | . | 3 | 0 | 4 | 6.3 | . | .
CC1CC(C)(C)N(C(=O)CN2C(=O)CCC2=O)c2ccccc21 (configuration not stated) | 12 | 14 | -2 | 8 | 6.2 | 4594 | -7
Cc1cc(NS(=O)(=O)c2c(C(=O)N3CCOCC3)c(C)n(C)c2C)ccc1Br | -1 | 19 | 7 | 8 | 5.8 | 4995 | 28
CCN(CC)C(=O)C1CCCN(c2ccc([N+](=O)[O-])cc2)C1 (configuration not stated) | 8 | 13 | 11 | -5 | 19 | 4257 | -9
COc1ccc(-n2cnc3c(cnn3CCC#N)c2=N)cc1 | -2 | . | . | 21 | 3.6 | 2904 | -17

Compound activity as filed in PubChem BioAssay.
